Assay outcomes from PubChem.
Rango-impB inh – qHTS Assay for Inhibitors of Rango (Ran-regulated importin-beta cargo) - Importin beta complex formation. Rango CFP/YFP FRET sensor + importin beta, 45 min. Potency, µM (top dose mostly 92.2 µM), without a hit: at the highest dose inhibition of complex formation. 340,000 tested, 0.031% active. AID 540263, 2011; active = rising FRET ratio curve, often small or poorly fitted; inconclusive = mostly compound fluorescence or quenching in the first reads; inactive = flat curves in all reads;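 also: potency is read from the fitted curve at half-maximal effect; 0% = DMSO wells and 100% = buffer wells lacking importin beta; nearly all actives have a fitted effect of over 15% in size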
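Inhibition scored from the CFP 486 nm/YFP 530 nm FRET ratio 45 min after adding 0.125 microM importin beta to 50 nM Rango biosensor preincubated 5 min with compound (room temperature, PBS with DTT, Tween-20, BSA). No-importin wells as positive control.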
Rango release inh – qHTS Assay for Inhibitors of RanGTP induced Rango (Ran-regulated importin-beta cargo) - Importin beta complex dissociation; Biochemical FRET Rango-importin beta, RanGTP-induced dissociation; Potency, µM (doses to about 46.1 µM), without a hit: top-dose activity change, negative = inhibition; 340,000 tested, 0.071% active; AID 540253, 2011; active means falling FRET ratio curve, often poorly fitted, with flat reads before Ran was added; inconclusive means other falling curves, or compound fluorescence or quenching; inactive means flat or rising ratio curve;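 also: potency is read from the fitted curve at half-maximal effect; % of control where 0% means no effect; nearly all actives have a fitted effect of over 45% in size; -100% = wells without RanGTP and RCC1; the record marks most hits as doubtful in a second field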
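Rango FRET biosensor (snurportin-1 IBB flanked by N-terminal EYFP and C-terminal CFP10) at 0.1 uM, with 0.25 uM importin beta in PBS, 1mM DTT, 0.02% Tween-20, 0.1% BSA. 0.6 uM Ran, 2mM GTP and 0.2 uM RCC1 were then added for 45 min at room temperature. Inhibition read as loss of FRET rise.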
miR-21 FLuc – qHTS Assay for Modulators of miRNAs and/orActivators of miR-21; HeLa miR-21 FLuc reporter, luciferase, 48 h; Potency, µM (series often up to 38.3 µM), for inactives: top-dose reporter change, positive = more light; 340,000 tested, under 10 active; active = well fitted rising curve with a large enough effect; inconclusive = small, poorly fitted or top-dose-only effect; inactive = no such curve, though single readings can be large or run the other way;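 also: % of control where 0% means no effect; miR-21 action dims this reporter so a rising signal means less miR-21 action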
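HeLa miR-21-FLuc reporter line, endogenous miR-21; 2000 cells/well in DMEM/10% FBS; compound titration up to ~40uM final, 48 h, 37 degree Celsius; luciferase detection reagent, 15 min lysis, CCD luminescence.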
GLA inh pH 4.5 – qHTS Assay for Inhibitors of Human alpha-Galactosidase at pH 4.5; Alpha-galactosidase A (Homo sapiens), P06280; purified enzyme, 4-MU-alpha-Gal fluorescence, pH 4.5; activity change, negative = inhibition, % at 105 µM; 230,000 tested, under 10 active; inconclusive = small, poorly fitted or top-dose-only inhibition, or a rising curve; inactive = flat fitted curve, though single readings scatter; no compound was filed as active;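 also: 0% = full activity with enzyme and -100% = basal without enzyme; dose as in the result columns while the protocol names 77 µM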
Target sequence (P06280 whole entry, looked up): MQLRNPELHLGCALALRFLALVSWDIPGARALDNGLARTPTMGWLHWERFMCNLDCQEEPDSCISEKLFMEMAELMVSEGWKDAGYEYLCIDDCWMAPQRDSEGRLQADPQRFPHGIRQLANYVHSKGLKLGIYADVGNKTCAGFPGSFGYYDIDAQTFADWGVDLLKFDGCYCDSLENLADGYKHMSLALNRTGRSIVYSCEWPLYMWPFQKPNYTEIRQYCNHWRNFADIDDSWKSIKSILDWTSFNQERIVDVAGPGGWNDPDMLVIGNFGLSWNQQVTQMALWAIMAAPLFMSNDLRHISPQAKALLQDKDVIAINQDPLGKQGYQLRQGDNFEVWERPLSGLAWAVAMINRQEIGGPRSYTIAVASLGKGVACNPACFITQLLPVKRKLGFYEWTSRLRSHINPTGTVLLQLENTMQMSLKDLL
Starred values were filed as active, the others as inactive; u = inconclusive; x = not tested or not shown. These rows are one share of the data, so the mix of outcomes need not match the whole.

Compound	Rango-impB inh	Rango release inh	miR-21 FLuc	GLA inh pH 4.5
C#CCOCCOCCOCCNc1nc(N2CCN(C(=O)[C@H](CCCCN)n3cc([C@@H](N)C(C)CC)nn3)CC2)nc(N2CCN(C(=O)[C@H](Cc3cc4ccccc4[nH]3)n3cc([C@@H](N)C(C)CC)nn3)CC2)n1 (stereo partly specified)	u	2.4%	x	x
CCc1ccc(N2CC(C(=O)OC)CC2=O)cc1 (stereo unspecified)	4.9%	13.3%	-1.5%	7.9
O=C(OCCC1Oc2cccnc2NC1=O)c1ccc(Cl)cc1 (stereo unspecified)	-1.0%	6.4%	0.5%	-2.3
COc1ccc(Nc2ncnc3c2c(C)c(C)n3CCCN(C)C)cc1	-1.7%	40.1%	-52.6%	x
CCN(C[C@H]1N[C@@](C)(C(=O)OC)[C@H]2C(=O)N(C)C(=O)[C@@H]12)C(=O)Nc1ccc(Cl)cc1	1.0%	-2.2%	x	x
CCn1c(=O)c2ccccc2n(Cc2ccc([N+](=O)[O-])cc2)c1=O	-3.6%	-5.6%	0.5%	x
Cc1ccc(C)c(C(=O)CN2C(=O)c3ccccc3S2(=O)=O)c1	5.0%	5.9%	-11.4%	6.0
Cc1cc([N+](=O)[O-])nn1CCC(=O)NC1CCCCCC1	-1.2%	23.6%	2.2%	-2.6
COc1ccccc1CNC(=O)C(NC(=O)C1CCCCC1)C(C)C (stereo unspecified)	1.5%	11.4%	x	x
CCOc1cccc(-c2nc3c(s2)CCc2onc(-c4cccc([N+](=O)[O-])c4)c2-3)c1	2.8%	7.2%	x	x
O=C(c1csc2ccccc12)N1CCCCCC1	0.2%	-3.1%	-5.4%	4.4
Cc1ccc(-c2cc(C(=O)N3N=C(C(F)F)CC3(O)C(F)F)c3ccccc3n2)cc1C (stereo unspecified)	3.7%	-2.1%	-4.5%	-4.6
O=C(c1ccccc1Cl)N(Cc1ccccc1F)N1C(=O)CCCC1=O	-0.7%	8.8%	3.3%	-3.5
COC(=O)C1CCN(S(=O)(=O)Cc2ccccc2Cl)CC1	0.8%	4.4%	0.6%	x
Cc1ccc(-c2nc3ccc(Cl)cc3n2OC(C)C(=O)O)cc1 (stereo unspecified)	-1.8%	6.4%	-46.2%	-8.8
c1ccc2c(c1)Cn1nnnc1-2	2.7%	-8.4%	-0.3%	-5.0
OCCCC1CCCN(Cc2cn[nH]c2-c2ccc(F)cc2F)C1 (stereo unspecified)	u	0.2%	13.1%	8.9
CSc1nnc2c3c4c(sc3nc(-n3nc(C)cc3C)n12)COC(C)(C)C4	-0.7%	-10.1%	3.3%	1.6
COc1ccc(C(=O)NC2CCCc3ccccc32)c(OC)c1OC (stereo unspecified)	-2.1%	3.8%	0.6%	x
CN(Cc1ccccc1)C(=O)c1ncn(Cc2ccccc2)c1C(=O)N(C)Cc1ccccc1	5.8%	-5.1%	x	x

Reprinted from the part before: 2 compounds, then new ones.
Compound	Rango-impB inh	Rango release inh	miR-21 FLuc	GLA inh pH 4.5
COc1ccc(C(=O)NC2CCCc3ccccc32)c(OC)c1OC (stereo unspecified)	-2.1%	3.8%	0.6%	x
CN(Cc1ccccc1)C(=O)c1ncn(Cc2ccccc2)c1C(=O)N(C)Cc1ccccc1	5.8%	-5.1%	x	x
O=[N+]([O-])c1ccccc1Nc1cccnc1	2.3%	10.4%	x	x
COc1ccc(/C(O)=C2/C(=O)C(=O)N(c3ccccn3)C2c2ccc(F)cc2)cc1 (stereo unspecified)	-2.8%	-17.3%	-5.6%	x
COc1ccccc1-c1c(NC(=O)C(C)C)n(C)c2ccccc2c1=O	2.7%	-5.7%	3.3%	3.2
CCc1n[nH]c(=S)n1N=C1CCC(C)CC1 (stereo unspecified)	-0.2%	16.5%	1.9%	3.9
CCOC(=O)Cc1cc(=O)n2[nH]c(C)cc2n1	-1.5%	-9.6%	-3.0%	-5.3
COCCN=C1NC(=O)C(CC(=O)Nc2cccc(Cl)c2C)S1 (stereo unspecified)	1.1%	-3.5%	-18.1%	-20.3
O=c1c2ccccc2c2ccccc2c(=O)n1Cc1cccnc1	3.2%	-5.0%	-5.3%	-3.5
CN1CCC(CN)(N2CCN(c3ccccc3)CC2)CC1	-1.5%	-12.0%	-10.1%	x
CCSc1nc(O)c(CC)c(=O)n1C(C)CC (stereo unspecified)	0.4%	-4.7%	-6.7%	-3.1
Oc1ccc(/C=N/Nc2nccnc2Cl)cc1	-2.5%	-4.1%	-48.1%	-0.4
N#Cc1ccccc1OCC(=O)C1CC1	u	2.2%	-21.2%	5.6
CC(=O)N1N=C(c2ccco2)CC1c1cc2cc(C)ccc2nc1Cl (stereo unspecified)	-0.8%	0.1%	-2.2%	-4.2
Nn1cnnc1N/N=C/c1ccc(Cl)cc1Cl	-1.1%	6.5%	-7.5%	x
NS(=O)(=O)c1ccc(NC(=S)N2CCN(C(=O)C3CCCO3)CC2)cc1 (stereo unspecified)	0.3%	8.4%	1.9%	x
CCOc1ccc(S(=O)(=O)Nc2cccc(C(=O)NCC(c3ccco3)N3CCCC3)c2)cc1 (stereo unspecified)	-0.7%	-6.5%	x	x
O=C(N[C@@H](Cc1ccccc1)C(=O)NC1CCCCC1)c1ccco1	-0.7%	-0.1%	-10.7%	-10.1
CC(C)(C)NS(=O)(=O)c1ccc(CCC(=O)N2CCCC2)cc1	2.2%	5.8%	-2.3%	8.6
Cc1ccc(S(=O)(=O)NCCCCCC(=O)NC(C)(C)CO)cc1	-0.5%	-7.2%	-2.9%	-19.8
CCN1CCN(c2oc(-c3ccccc3C)nc2S(=O)(=O)c2ccccc2)CC1	-0.1%	25.2%	x	x
Cc1ccc(C(=O)O)cc1Nc1ncnc2sc3c(c12)CCC3	-5.0%	-2.7%	-1.3%	-3.8
Cc1ccccc1S(=O)(=O)N1CC(C(=O)O)=CC[C@H]1c1ccc(Cl)cc1	0.3%	-3.4%	x	x
CCN1CCN(S(=O)(=O)c2ccc(Cl)c(C(=O)Nc3cc(Cl)ccc3N3CCOCC3)c2)CC1	-5.3%	18.5%	-0.8%	x
COC(=O)/C=C/c1sc2nc(C)cc(C)c2c1N=CN(C)C	u	u	-42.5%	5.1
CCOC(=O)c1sc(Nc2nc3c(OC)cccc3s2)nc1C	x	x	-4.0%	4.5
Cc1ccc(C(=O)N2c3ccccc3N(Cc3ccccc3)C(=O)C2(C)C)cc1	4.2%	2.6%	u	1.0
Cc1c(Cl)cccc1NC(=O)N1CCCC1	u	-5.4%	4.4%	3.3
CCC1CCC(C(=O)NC(CCSC)C(=O)NCCN(CC(C)C)CC(C)C)CC1 (stereo unspecified)	-0.3%	-23.9%	2.3%	0.9
COc1ccc(CCNC(=O)COC(=O)c2ccccc2NCCO)cc1OC	-1.7%	1.9%	x	x
Nc1nc(Sc2ncccc2[N+](=O)[O-])n[nH]1	5.8%	3.8%	1.4%	1.4
CCN(CC)CCN(Cc1cc2cc3c(cc2[nH]c1=O)OCO3)C(=S)NCC1CCCO1 (stereo unspecified)	-3.3%	1.0%	-6.5%	u
O=C(c1sc2cc(Cl)ccc2c1Cl)N1CCN(CCc2ccccn2)CC1	-1.4%	12.2%	-0.9%	x
NNC(=O)c1sccc1OCc1ccc(F)cc1	-1.1%	-19.6%	-14.6%	-9.7
O=C1CC(c2ccc(F)c(Br)c2)C2=C(CCCC2=O)N1 (stereo unspecified)	-0.6%	-17.6%	0.1%	-0.3
COc1ccc(CNC(=O)c2ccc(=O)oc2)cc1OC	6.1%	18.9%	0.5%	-3.6
CCC(=O)c1ccc(OC(=O)N2CCOCC2)cc1	-0.9%	3.1%	-20.8%	x
Cc1cccc(C)c1OCC(=O)N(Cc1ccco1)C1CCS(=O)(=O)C1 (stereo unspecified)	-2.3%	-8.1%	0.1%	x
COc1cc2ncnc(NCc3ccccc3C)c2cc1OC	0.1%	13.1%	3.3%	-7.3
Cc1[nH]n(-c2ccccc2)c(=O)c1C(=O)c1ccc(Cl)cc1	-1.9%	9.9%	26.7%	0.9
COc1cc(NC(=O)COC(=O)c2ccccc2SCC(=O)N2CCCC2)cc(OC)c1	-2.4%	-0.6%	x	x
Cc1ccc2c(c1)C(O)(C1COC(C)(C)CC1=O)C(=O)N2C (stereo unspecified)	-1.9%	21.0%	-1.1%	0.5

2 entries from above, with values under each structure:
Values run as follows: Rango-impB inh	Rango release inh	miR-21 FLuc	GLA inh pH 4.5
Cc1c(Cl)cccc1NC(=O)N1CCCC1
  u	-5.4%	4.4%	3.3
CCC1CCC(C(=O)NC(CCSC)C(=O)NCCN(CC(C)C)CC(C)C)CC1 (stereo unspecified)
  -0.3%	-23.9%	2.3%	0.9

Continuation:
Compound	Rango-impB inh	Rango release inh	miR-21 FLuc	GLA inh pH 4.5
O=C(c1cc2c(s1)CCCC2)N1CCN(S(=O)(=O)c2ccccc2C(F)(F)F)CC1	-2.9%	2.9%	-8.0%	-11.0
COc1ccc(S(=O)(=O)N2CCC(C(=O)Nc3nnc(C)s3)CC2)cc1OC	0.2%	9.8%	x	x
Fc1ccc(-c2csc3ncnc(N4CCN(c5ccccc5)CC4)c23)cc1	0.3%	-15.3%	-0.6%	x
Cc1cc(NC(=O)CSc2nnc(-c3ccc(Br)o3)n2Cc2ccccc2)no1	0.9%	1.4%	-6.2%	1.0
COc1ccc(C(=O)OCC(=O)NCC2CCCCC2)cc1F	-0.6%	-9.7%	x	x
C=CCNc1scc(-c2ccccc2)[n+]1CC=C	0.3%	-0.6%	3.9%	-11.5
C#CCOCCOCCOCCNc1nc(N2CCN(C(=O)[C@H]([C@@H](C)CC)n3cc([C@@H](N)CC(C)C)nn3)CC2)nc(N2CCN(C(=O)[C@H](Cc3ccc(O)cc3)n3cc([C@@H](N)C(C)CC)nn3)CC2)n1 (stereo partly specified)	4.4%	5.5%	0.3%	1.6
COc1cccc(NC(=O)CN(C)C(=O)C(C)Sc2ccccc2)c1 (stereo unspecified)	-0.5%	-15.1%	x	x
O=C(CC12CC3CC(CC(C3)C1)C2)NCC(=O)N1CCc2ccccc2C1	0.2%	0.4%	-3.0%	-5.7
COc1ccccc1CNC(=O)[C@H](C)NC(=O)[C@@H]1Cc2ccccc2CN1	4.1%	1.4%	-1.0%	x
Clc1cccc(-c2ccc(/C=N/n3cnnc3)o2)c1Cl	0.0%	4.5%	-1.0%	-0.3
O=C(NCCc1ccccc1)C1CCCN(c2cnccn2)C1 (stereo unspecified)	4.1%	-3.5%	-2.5%	x
c1ccc2c(C[C@@H]3CNCCN3CC3CCCCC3)cccc2c1	0.0%	-12.7%	x	x
Cc1ccnc(NC(=O)CCC(=O)N(CC(=O)NCc2ccccc2)Cc2ccc(F)cc2)c1	-4.0%	-9.1%	6.9%	x
O=c1c2sc(-c3ccccc3)cc2nc2n1CCC2	-3.0%	-9.6%	-0.3%	1.1
Cc1nn(-c2ccc(F)cc2)c2sc(C(=O)N3CCCCCC3)cc12	-1.4%	-6.5%	-2.6%	-4.2
CCCSC1=C(C#N)C2(CCCCC2)C(C#N)=C(N)N1	1.9%	5.6%	8.3%	-4.4
N=c1sccn1CC(=O)Nc1cccc(S(N)(=O)=O)c1	5.0%	10.9%	-6.7%	3.8
CC(=O)c1ccc(OCCCC(=O)NC2=NCCS2)cc1	3.7%	-16.2%	0.7%	-2.9
CCOC(=O)c1ccccc1Nc1cc(C)nc2nc(C)nn12	u	-8.4%	-1.6%	3.1
Clc1ccccc1CONc1ncnc2nonc12	-2.7%	20.8%	-52.6%	0.2
CCCn1c(SCC(=O)Nc2nc3c(s2)CCCC3)nc2c1c(=O)n(C)c(=O)n2C	1.2%	4.6%	3.1%	6.2
